Assay outcomes (PubChem)
RE007 growth inh – less growth of the S. pombe RE007 Vpr strain | S. pombe RE007 Vpr strain, BacTiter-Glo ATP luminescence, 24 h; control for the full effect not named in the record | Potency, µM (top dose mostly 92.2 µM), inactives show at the highest dose activity change, negative = less growth | hit rate 0.21% among 360,000 | AID 651644; active = well fitted falling curve with a large enough effect; inconclusive = small, poorly fitted or top-dose-only effect; inactive = no such curve, though single readings can be large or run the other way;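 further: on the % scale 0 is the no-effect control and ±100 the full control effect; nearly all actives have a fitted effect of over 50% in size; the assay follows cell death caused by Vpr and the record does not say whether a fall means rescue or toxicity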
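Fission yeast RE007 carrying one integrated HIV-1 vpr copy, seeded at OD 0.01 in PMG+AL medium with 23 nL pinned compound. Grown 24 h at 30 degrees; viability read by BacTiter-Glo luminescence after 5 min.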
Cruzain inh Det – blocks cruzain activity in presence of Triton detergent | AID 1478 | purified cruzain, Z-FR-AMC fluorescence, 0.01% Triton | hit rate 0.43% among 200,000 | P25779 | Potency, µM, inactives show max response, negative = inhibition, hits mostly inhibitors;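 further: plate controls were neutral wells for no effect and buffer without enzyme for full effect; nearly all actives have a fitted effect of over 40% in size; top concentration of the series not given in the record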
Target sequence (P25779 123-467 limits assumed): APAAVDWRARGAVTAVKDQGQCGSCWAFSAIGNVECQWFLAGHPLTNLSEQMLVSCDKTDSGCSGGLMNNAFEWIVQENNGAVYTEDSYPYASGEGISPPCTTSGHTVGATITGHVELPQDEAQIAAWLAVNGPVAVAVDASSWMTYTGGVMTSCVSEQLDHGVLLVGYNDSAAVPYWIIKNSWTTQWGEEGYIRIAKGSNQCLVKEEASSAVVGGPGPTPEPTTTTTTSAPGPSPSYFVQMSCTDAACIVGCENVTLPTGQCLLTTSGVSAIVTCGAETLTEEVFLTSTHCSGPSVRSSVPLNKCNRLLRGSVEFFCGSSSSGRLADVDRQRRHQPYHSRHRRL
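Compounds were screened in titration against cruzain (1.5 nM) with 0.01% Triton X-100 to counter colloidal aggregation. Activity was the AMC fluorescence increase over 60 s after adding 2 uM Z-FR-AMC at pH 5.5.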
LASV entry inh – Lassa virus entry inhibition; Potency, µM (doses to about 37.9 µM), for the others: at the top dose activity change, negative = inhibition, actives largely listed as inhibitors; hit rate 1.2% among 300,000; Lassa virus pseudotype entry inhibition, cell reporter; control for the full effect not named in the record; active means well fitted inhibition curve with a large enough effect; inconclusive means small, poorly fitted or top-dose-only effect, or effect the other way; inactive means flat fitted curve, though single readings scatter; tested in HEK293 cells; further: on the % scale 0 is the no-effect control and ±100 the full control effect; nearly all actives have a fitted effect of over 50% in size; luciferase read-out
Cruzain inh noDet – cruzain (T. cruzi) inhibition without detergent | hit rate 2.3% among 200,000 | Potency, µM, without a hit: max response, negative = inhibition, actives largely listed as inhibitors | purified cruzain, Z-FR-AMC fluorescence, no detergent | P25779 | AID 1476;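 further: plate controls were enzyme without inhibitor for no effect and buffer without enzyme for full effect; nearly all actives have a fitted effect of over 40% in size; top concentration of the series not given in the record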
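Detergent-free condition (0.00005% Triton X-100) in acetate buffer pH 5.5 with DTT. 1.5 nM enzyme and compound were pre-mixed 15 min, then 2 uM Z-FR-AMC substrate added; reaction progress from fluorescence change between first and third reads (60 s).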
NS1 inh – influenza NS1 inhibition; AID 2326; hit rate 0.4% among 270,000; S. cerevisiae slowed by influenza A NS1, growth recovery by OD600; Potency, µM (titrated, usually from 46.1 µM), for inactives: top-dose activity, positive = more growth; active means well fitted rising curve with a large enough effect; inconclusive means small, poorly fitted or top-dose-only effect; inactive means no such curve, though single readings can be large or run the other way; further: nearly all actives have a fitted effect of over 50% in size
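Recovery from NS1-induced slow growth read by OD600 in budding yeast switched to galactose assay medium (pH 6.0, -URA) at 1:100 dilution. Compound 23 nl per well; the matching strain lacking NS1 serves as control.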
2A StopGo – FMDV 2A StopGo reporter, luciferase signal; human cells with a luciferase reporter of 2A StopGo recoding; control for the full effect not named in the record; Potency, µM (titrated, usually from 57.9 µM), inactives show at the top dose signal change, negative = less light; hit rate 1.2% among 410,000; active = well fitted falling curve with a large enough effect; inconclusive = small, poorly fitted or top-dose-only effect; inactive = no such curve, though single readings can be large or run the other way; tested in HEK293T cells; further: on the % scale 0 is the no-effect control and ±100 the full control effect; nearly all actives have a fitted effect of over 45% in size; luciferase light after 4 h
SARS PLP yeast – inhibitors of SARS-CoV papain-like protease in yeast; S. cerevisiae expressing SARS-CoV PLpro, growth rescue; control for the full effect not named in the record; Potency, µM (titrated, usually from 32.9 µM), without a hit: top-dose activity, positive = growth rescue; hit rate 0.19% among 330,000; AID 485353; active means well fitted rising curve with a large enough effect; inconclusive means small, poorly fitted or top-dose-only effect; inactive means no such curve, though single readings can be large or run the other way; further: 0% is about no effect; nearly all actives have a fitted effect of over 55% in size; growth read by luminescence after 48 h
MARV entry inh – blocks Marburg virus binding to or entry into cells | Marburg virus pseudotyped entry inhibition, cell reporter; control for the full effect not named in the record; about a third of the inactives were read at about 46 µM | Potency, µM (highest dose often 37.8 µM), without a hit: top-dose activity change, negative = inhibition, usual class: inhibitors | hit rate 1.8% among 300,000 | AID 540276; active = well fitted inhibition curve with a large enough effect; inconclusive = small, poorly fitted or top-dose-only effect, or effect the other way; inactive = flat fitted curve, though single readings scatter; tested in HEK293 cells; about a fifth of its hits are not listed in these tables; further: on the % scale 0 is the no-effect control and ±100 the full control effect; luciferase read-out
Numbers without * were called inactive; ? = inconclusive; · = no result given; & = joins results of further samples; [ ] = remark or other dose. Unless noted, the call rests on the fitted dose curve; in most records, active means well fitted curve in the direction sought with a large enough effect; inconclusive means small, poorly fitted or top-dose-only effect, or another doubt; inactive means no such curve, though single readings can be large; an effect the other way counts as inactive or inconclusive. Potency means the concentration at half of the fitted maximal effect. Compounds as they come. Share with any hit: about 4.7%.

SMILES	RE007 growth inh	Cruzain inh Det	LASV entry inh	Cruzain inh noDet	NS1 inh	2A StopGo	SARS PLP yeast	MARV entry inh
Cc1cccc(NC(=O)c2ccc(N3CCCCC3)c([N+](=O)[O-])c2)n1	-30%	-0.2%	?	-9%	-112%	0%	-20%	?
CC1(C)CC(=O)/C(=C(\O)Cc2ccccc2)C(=NCCCCCC(=O)O)C1	-2%	0.0%	5%	-9%	-14%	-2%	-3%	?
Cc1ccc(S(=O)(=O)CC2CSc3nc4ccccc4n32)cc1 (stereo not given)	25%	-5.2%	?	-10%	-2%	?	-1%	?
CC(=O)Nc1sc(-c2ccccc2)nc1-c1ccccc1	-23%	·	-1%	·	·	-4%	-3%	-17%[14.2 µM]
Cc1ccc(C)c(NC(=O)CCN2CCOCC2)c1	0%	-1.3%	4%	-8%	-3%	-12%	2%	?
C=CCc1cccc2cc(C(=O)N3CCN(C(=O)c4ccco4)CC3)c(=O)oc12	4%	0.0%	6%	?	-1%	·	1%	8%
COc1ccc(NC(=O)c2ccc3c(c2)N(Cc2cccc(Cl)c2)C(=O)c2ccccc2S3=O)cc1Cl (stereo not given)	·	-5.5%	?	?	·	0%	·	·
Cc1cc(C)cc(NC(=O)Nc2ccc3c(c2)N(C)C(=O)CS3)c1	9%	-3.0%	·	-2%	19%	?	8%	·
Cc1cccc(OCC(=O)Nc2ccc3c(c2)C(=O)NC3=O)c1	-9%	·	·	·	-10%	5%	4%	·
COc1ccc(/C=N/NC(=O)c2ccc(=O)n(C)c2)cc1OC	11%	·	-1%	·	·	5%	-3%	7%[46.1 µM]
Cc1cc(C)cc(NC(=O)C2C3C=CC4(O3)C2C(=O)N(CCN2CCCCC2)C4C(=O)NC2CCCCC2)c1 (stereo not given)	4%	·	?	·	-2%	-7%	2%	-6%[46.1 µM]
CCOc1cc(S(=O)(=O)NCCc2cccc(C)c2)c(OCC)cc1-n1cnnn1	11%	-3.6%	?	?	-35%	·	-3%	-7%
CC1(c2ccccc2Cl)NC(=O)N(CC(=O)N2CCc3ccccc3C2)C1=O (stereo not given)	2%	·	1%	·	·	0%	1%	13%[46.1 µM]
CN(C)P(=O)(Nc1cccc2ccccc12)Nc1cccc2ccccc12	23%	·	-3%	·	·	-10%	-1%	22%
COc1cccc(/C=C/C(=O)c2cccc([N+](=O)[O-])c2)c1OC	-14%	·	?	·	-2%	?	0%	?
C[C@@H](CSc1ccccc1)CN1CC[C@H](NC(=O)OCc2ccccc2)CCC1=O	6%	·	·	·	-34%	-26%	-9%	·
CN(C)c1ccc(Nc2nc(N)c([N+](=O)[O-])c(N3CCOCC3)n2)cc1	5%	-10%	?	-8%	17%	0%	2%	?
O=C(NCCN1CCOCC1)c1cnn2c(-c3ccccc3)cc(-c3ccccc3)nc12	-6%	-9.7%	-30%	10%	8%	-14%	-3%	-29%
O=C(CCNS(=O)(=O)c1ccccc1F)NCc1ccc2c(c1)OCO2	-2%	-1.8%	-13%	-14%	2%	-21%	3%	2%[46.1 µM]
COc1ccc(-c2noc(CN3CCCCC3c3nccn3C)n2)cc1 (stereo not given)	-7%	·	·	·	2%	-12%	0%	·
COc1ccc(S(=O)(=O)N2CCOC2CNC(=O)C(=O)NCCc2ccccc2OC)cc1C (stereo not given)	3%	·	·	·	5%	-29%	9%	·
O=C(NCCN1CCOCC1)c1ccc(=O)oc1	-12%	-5.7%	19%	-19%	1%	13%	-7%	25%
O=C(CN1CCCCC1)Nc1cc(Cl)ccc1Oc1ccccc1	3%	·	·	·	-8%	-22%	1%	?
O=[N+]([O-])c1ccc(C2C3C(c4ccccc4)=NC4(CCCC4)N32)cc1 (stereo not given)	-12%	-7.1%	2%	-1%	-13%	-21%	-15%	5%
O=C(Cc1ccc(-n2c(=O)c3sccc3n(CC(=O)Nc3ccccc3)c2=O)cc1)NCc1ccco1	5%	·	-20%[46.1 µM]	·	?	-12%	0%	17%[46.1 µM]
Cc1csc(NC(=O)CCc2c(C)nc3cc(-c4ccc(Cl)cc4)nn3c2C)n1	1%	-7.9%	?	11%	7%	?	-8%	-35%
Cc1ccccc1NS(=O)(=O)c1nnc(NC(=O)c2ccccc2C)s1	10%	-1.1%	15%[46.1 µM]	-11%	5%	-14%&-15%	-4%	·
CC(=O)Nc1ccccc1OCC(=O)NC(C)c1ccccc1 (stereo not given)	-24%	-2.0%	-3%	2%	3%	3%	-8%	0%
CCc1ccccc1Oc1ccc(S(=O)(=O)N2CCN(C)CC2)cn1	3%	·	-1%	·	·	62%[activator]	-1%	2%
O=C(CNC1CCCCC1)Nc1cccc(C(F)(F)F)c1	-14%	·	-3%	·	-5%	-8%	23%	13%
Cc1cc(C(=O)CSc2nc(N)cc(N)n2)c(C)n1-c1cccc(F)c1	-14%	-7.6%	-1%	-7%	25%	0%	8%	?
NC(=S)N/N=C/c1ccc([N+](=O)[O-])cc1	2%	·	3%[46.1 µM]	·	·	-9%	-1%	0%[46.1 µM]
CCN(c1ccc(NC(=O)CCc2nc3sc4c(c3c(=O)[nH]2)CCCC4)cc1)C(C)C	-20%	·	0%	·	·	-18%	3%	-24%
Cc1cc(Cl)ccc1OCC(=O)Nc1ccc(CN2CCOCC2)cc1	-9%	·	·	·	-25%	0%	-5%	·
O=C(N/N=C/c1ccccc1O)C(=O)N1CCCCCC1	-23%	·	?	·	-41%	47%[activator]	27%	-10%[46.1 µM]
CCOc1ccc(Nc2oc(-c3cccs3)nc2C#N)cc1	14%	-28%	6%	?	-9%	·	·	?
COc1ccc(-c2nc(NC(=O)CSc3nnc4ccccn34)ns2)cc1	2%	-3.4%	27%	-19%	15%	23%	2%	-4%
CCC(=O)c1ccc(OCC(O)CN2CCN(S(=O)(=O)N3CCCCC3)CC2)cc1 (stereo not given)	-12%	0.3%	-17%	19%	-17%	-23%	-1%	2%&6%
O=C(c1ccc(NC2=NC3CS(=O)(=O)CC3S2)cc1)N1CCc2ccccc2C1 (stereo not given)	0%	-1.9%	·	7%	-3%	2%	-2%	-1%
Cc1cc(C)cc(N(C(=O)CNS(=O)(=O)c2ccccc2)C(C(=O)NCc2ccccc2)c2ccc(C)o2)c1 (stereo not given)	1%	-8.6%	12µM*	-1%	10µM*	-10%	12%	?
S=C(Nc1ccccc1)Nc1ccccc1-n1cccc1	-13%	·	·	·	-1%	52%[activator]	0%	·
Cn1ncc2c(c(SCc3ccc(Cl)cc3Cl)nn2C)c1=O	-16%	·	-9%[46.1 µM]	·	3%	-3%	0%	17%[46.1 µM]
O=C(CNC(c1ccccc1)c1ccccc1)Nc1ccc(F)cc1	2%	2.7%	?	18%	2%	9%	-10%	?
O=C(Cc1ccccc1)NNC(=O)Cc1ccccc1	-16%	·	-21%	·	-4%	1%	3%	2%[46.1 µM]
CC(=O)Nc1ccc(S(=O)(=O)N(C)CC(=O)N/N=C/c2ccc(C(=O)O)cc2)cc1	-17%	·	·	·	3%	0%	0%	·
CCNC(=O)COc1ccc(OCc2ccccc2)cc1	3%	·	-3%[46.1 µM]	·	-1%	12%	-1%	?
COc1cc(-c2noc(-c3cc(C)[nH]n3)n2)cc(OC)c1OC	·	-0.6%	13%[46.1 µM]	-1%	·	5%	·	·
COc1ccccc1NC(=O)C1CCN(S(=O)(=O)c2ccc3c(c2)NC(=O)CO3)CC1	4%	·	·	·	-12%	-20%	?	·
Cc1c(Cl)cccc1NC(=O)CCC(=O)N/N=C/c1ccc[nH]1	7%	1.0%	?	3%	8%	0%	-1%	3.2µM*
CC(C)(C)C(=O)Oc1cccc(Nc2ncnc3ccccc23)c1	-13%	·	-2%[46.1 µM]	·	-53%	-24%	-11%	?
O=C(Cc1ccc(Cl)c(Cl)c1)NNC(=S)NCC1CCCO1 (stereo not given)	12%	·	·	·	7%	-8%	-7%	·
COc1cccc(-n2c(Cc3cc(=O)[nH]c(=O)[nH]3)nnc2SCC(=O)Nc2ccccc2)c1	7%	-1.7%	·	-6%	8%	-9%	6%	0%
CCOC(=O)CNC(=O)CSc1ccc(-c2nc3ccccc3[nH]2)cn1	12%	·	6%[46.1 µM]	·	-2%	-5%	-3%	15%[46.1 µM]
CCc1cc2c(N[C@@H](C)C(=O)O)ncnc2s1	22%	-2.2%	1%	9%	0%	4%	18%	16%
CC(C)c1ccc(C(C)NC(=S)NC2CCCCC2)cc1 (stereo not given)	-5%	·	·	·	-68%	?	-5%	·
CCCCOc1ccc2ccccc2c1C=O	-29%	-8.5%	-26%	-1%	-134%	37%[activator]	-12%	2%[46.1 µM]
COc1cccc(CC(=O)Nc2ccccc2N2CCCC2)c1	-14%	·	·	·	9%	-12%	-6%	·
O=C(CN1C(=O)c2ccccc2C1=O)NCC(=O)OCC(=O)c1ccc(Br)cc1	7%	0.2%	3%	-9%	-72%	-15%	5%	29%
N#C/C(=C\c1ccccc1[N+](=O)[O-])c1nc(C2CC2)cs1	-28%	-7.1%	1%	7%	-27%	14%	-64%	-4%
COc1ccc(CN(Cc2cccn2C)S(=O)(=O)c2ccccc2)cc1	5%	·	-27%	·	1%	16%	-2%	-1%

(cont.)
SMILES	RE007 growth inh	Cruzain inh Det	LASV entry inh	Cruzain inh noDet	NS1 inh	2A StopGo	SARS PLP yeast	MARV entry inh
C=CCn1c(SCC(=O)Nc2ccc(O)cc2)nc2sc(C)c(C)c2c1=O	4%	·	3%	·	·	0%	·	16%[46.1 µM]
O=S(=O)(Nc1nc2ccccc2nc1Cl)c1ccc(Cl)cc1	-1%	-8.1%	-19%	-17%	-46%	-14%	9%	-11%
Cc1ccc(OCCSc2nc(NC(C)C)nc(NC(C)C)n2)cc1	0%	-5.8%	?	2%	-46%	?	-85%	?
N#Cc1ccccc1OCC(=O)NC(=O)NC1CCS(=O)(=O)C1 (stereo not given)	-3%	·	12%	·	·	21%	-7%	15%
COc1ccccc1C1/C(=C(/O)c2ccc(OC(C)C)cc2)C(=O)C(=O)N1c1cc(C)on1 (stereo not given)	12%	-5.0%	?	11%	9%	-1%	-1%	-19%[46.1 µM]
